RanGTP-Impb inh = inhibitors of RanGTP-importin-beta interaction, primary screen, biochemical, FRET, CFP-Ran, YFP-importin-beta, homogeneous; Ran GTPase (GTP-bound) - importin-beta complex; inhibition, % (concentration not given with the values); AID 2216, 2009; actives 1.1% (n = 300,000); cell-free CFP-Ran/YFP-importin-beta FRET ratio;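 active = most replicates above 15%; inconclusive = exactly half above 15%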;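 note: 0% = DMSO wells and 100% = Ran loaded with GDP instead of GTP; wells of about 40 µL received 100 nL stock; the first replicate is given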
AF4-AF9 inh = inhibitors of AF4 peptide binding to AF9, primary screen, biochemical, AlphaScreen, biotin-AF4 peptide, FLAG-AF9, single point. Protein AF-9 (Homo sapiens), P42568. AID 651704, 2012. actives 0.47% (n = 350,000). inhibition, % at 10 µM;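 active = every replicate reaching a set inhibition limit, whatever the replicate mean, cut at about 25% in these data; inconclusive = mean inhibition reaches that limit but some replicates miss it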;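 note: 0% = plate neutral control median and 100% = total signal loss; the record names both 10 and 1 µM as test concentration; the first replicate is given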
Target sequence (P42568 whole entry, looked up): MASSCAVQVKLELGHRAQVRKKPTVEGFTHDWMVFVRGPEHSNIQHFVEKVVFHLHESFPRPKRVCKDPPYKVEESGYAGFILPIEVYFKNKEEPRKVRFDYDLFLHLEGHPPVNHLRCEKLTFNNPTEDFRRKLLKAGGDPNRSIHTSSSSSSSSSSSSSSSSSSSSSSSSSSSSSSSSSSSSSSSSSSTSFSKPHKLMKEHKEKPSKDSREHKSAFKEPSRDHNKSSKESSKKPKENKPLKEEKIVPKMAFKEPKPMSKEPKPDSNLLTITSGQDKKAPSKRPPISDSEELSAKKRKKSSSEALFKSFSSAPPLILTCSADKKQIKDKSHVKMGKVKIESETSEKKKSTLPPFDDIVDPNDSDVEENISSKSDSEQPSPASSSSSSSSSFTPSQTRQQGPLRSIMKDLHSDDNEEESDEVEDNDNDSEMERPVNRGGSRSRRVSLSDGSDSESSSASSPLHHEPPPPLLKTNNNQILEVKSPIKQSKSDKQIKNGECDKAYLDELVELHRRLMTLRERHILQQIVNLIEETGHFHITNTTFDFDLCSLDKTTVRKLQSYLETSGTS
T cruzi repl = inhibitors of intracellular T. cruzi growth, primary screen, luminescence, NIH3T3 host cells; inhibition, % (no concentration beside the values); T. cruzi beta-gal in NIH3T3, 90 h; actives 1.4% (n = 300,000);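 active = mean inhibition across valid replicates above about 55%, limit read from the data; inconclusive = mean below that limit but half or more replicates reach it; inactive = mean below it, under half of replicates reach it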;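 note: signal also drops with host cell toxicity which is not excluded here; 0% = plate median of DMSO wells and 100% = zero luminescence signal; higher percent means less beta-gal luminescence so fewer parasites; stock transfer was 50 nL into about 50 µL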
Beta cell apopt = inhibitors of cytokine-induced beta cell apoptosis, primary screen, luminescence; actives 0.8% (n = 300,000); protection from apoptosis, % (concentration not given with the values); AID 435005, 2010; INS-1E cytokine-induced death, ATP luminescence, 48 h; percent of positive-control rescue, neutral wells zero;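 active = all replicates at 75% or more, or half of them and the mean; inconclusive = half reach 75% but not the mean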;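 note: 0% = cytokine-treated negative control wells and 100% = positive control rescue; higher means more ATP so stronger rescue from cytokine killing; wells of about 40 µL received 100 nL stock; the first replicate is given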
Ecoli rRNA inh = reduced GFP signal of wild-type E. coli, primary screen, bacterial rRNA inhibitor project, GFP/RFP fluorescence, OD600, single point | E. coli WT GFP vs humanized-ribosome RFP mutants, 24 h; hits give low values; DMSO median 0, no signal -100 | GFP signal change (wild-type ribosome), % (test concentration not listed) | actives 1.6% (n = 350,000) | AID 720706, 2013;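 active = significant combined selectivity score with lowered wild-type GFP, culture density cut under 30%, mutant RFP and density less affected; inactive = any of these conditions unmet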; note: one replicate is shown; some compounds called inactive have numbers as strong as hits
FGF22 binding = binders of human FGF22 protein, primary screen, FGF22 synaptogenesis inhibitor project, biophysical, thermal shift, single point; recombinant FGF22 thermal shift, SYPRO orange fluorescence; percent of sucrose octasulfate shift, DMSO zero; calls only at 9.99 µM; actives 1.5% (n = 340,000); AID 651658, 2012;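 active = melting point raised past a set limit in the mean and every replicate; inconclusive = no clear call; three in four hits are not shown here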
Target sequence (Q9HCT0 whole entry, looked up): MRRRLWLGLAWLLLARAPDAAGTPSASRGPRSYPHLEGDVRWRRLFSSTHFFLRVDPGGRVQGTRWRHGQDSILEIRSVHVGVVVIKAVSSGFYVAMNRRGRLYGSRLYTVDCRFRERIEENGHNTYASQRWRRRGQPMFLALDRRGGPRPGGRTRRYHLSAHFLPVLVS
ALR inh = inhibitors of human ALR sulfhydryl oxidase, primary screen, biochemical, H2O2 detection, HRP-luminol luminescence, single point | FAD-linked sulfhydryl oxidase ALR (Homo sapiens), P55789 | purified ALR, DTT oxidation | inhibition, % (concentration not given with the values) | actives 3.8% (n = 290,000) | AID 485317, 2010;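 active = mean and each replicate at 75% or more; inconclusive = only one of the two met; inactive = neither met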;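 note: stock transfer was 7.5 nL into about 7.5 µL; 0% = neutral wells and 100% = wells with inactivated enzyme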
Target sequence (P55789 whole entry, looked up): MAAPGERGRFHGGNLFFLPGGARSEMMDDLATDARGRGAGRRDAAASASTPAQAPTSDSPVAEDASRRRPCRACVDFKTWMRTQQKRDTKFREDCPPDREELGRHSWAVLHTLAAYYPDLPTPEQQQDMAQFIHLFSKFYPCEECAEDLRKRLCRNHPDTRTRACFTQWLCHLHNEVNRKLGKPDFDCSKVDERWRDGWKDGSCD
Calb FLC = C. albicans growth inhibition with fluconazole, primary screen, CaCi-2 strain, Alamar Blue fluorescence. C. albicans CaCi-2 (fluconazole-resistant clinical isolate) + fluconazole, 48 h. growth inhibition, % (test concentration not listed). actives 0.57% (n = 300,000). AID 1979, 2009;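 active = most replicates above 75%; inconclusive = exactly half above 75%; inactive = most below 75%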;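 note: all wells also contain fluconazole at 8 µg/ml as a sub-toxic cotreatment; 0% = median of DMSO wells and 100% = median of geldanamycin control wells; wells of about 8 µL received 7.5 nL stock; the first replicate is given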
Ecoli rRNA inh OD600 = second read-out of Ecoli rRNA inh, no call of its own (marks repeat the call); OD600 change, %; measured here: OD600 growth;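 optical density of the mix in the first replicate; 0 = DMSO median and -100 = no signal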
Ecoli rRNA inh RFP = further read-out of Ecoli rRNA inh, marked with its call; RFP signal change, %; measured here: RFP humanized mutant strains;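 first replicate; 0 = DMSO median and -100 = no signal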
Numbers without * were called inactive; i = inactive; ? = inconclusive; · = no result given. The list is partial; the hit share may differ from the screen's.

Values in the order: Beta cell apopt	RanGTP-Impb inh	Ecoli rRNA inh RFP	AF4-AF9 inh	T cruzi repl	Calb FLC	Ecoli rRNA inh	ALR inh	FGF22 binding	Ecoli rRNA inh OD600
Cn1c(O)c(C(=O)c2ccccc2Cl)c(=O)n(C)c1=O
    0	0.9	·	·	-11	1	·	-12	·	·
Cc1ccc(OCCOc2cccc(C=C3C(=O)NC(=O)NC3=O)c2)c(C)c1
    -8	?	-6.6	-1.3	0	4	-5	-5	i	-5
O=c1[nH]c(=O)n(Cc2ccc(F)cc2)c(O)c1C=NCc1cccnc1
    ·	5.3	-1.3	3.4	12	1	-4	0	i	-1
COc1ccc(OC)c(CC(=O)N(C)C2CCCN(Cc3ccccc3F)C2)c1 (configuration not stated)
    1	3.2	3.3	-0.2	-4	-8	14	-5	i	10
Cc1c(C)c2ccc(OCC(=O)N3C[C@H]4C[C@@H](C3)c3cccc(=O)n3C4)c(C)c2oc1=O
    1	-3.6	·	-1.9	4	-4	·	-1	i	·
NC(Cc1ccccc1)Cc1ccccc1
    -1	3.3	-3.4	1.6	-7	-18	0	-6	i	-1
O=c1[nH]c(CN2CC=C(c3ccccc3)CC2)nc2cc(C(F)(F)F)ccc12
    -2	-2.1	·	·	9	-7	·	-10	·	·
CN1C(=O)C(C2c3ccccc3C(=O)N2Cc2ccccc2)C(=O)N(C)C1=O (configuration not stated)
    -10	1.6	·	·	-9	-20	·	3	·	·
Cc1ccc2c(c1)CC1(CN2C)C(=O)NC(=O)N(c2ccc(C)c(C)c2)C1=O (configuration not stated)
    -2	-3.5	·	·	3	-2	·	5	·	·
CN=C(SCc1cc2c(cc1Cl)OCO2)c1c(O)n(C)c(=O)n(C)c1=O
    -4	1.4	·	·	-13	35	·	101*	·	·
Nc1cc(N2CCNCC2)ccc1[N+](=O)[O-]
    -4	-3.7	·	·	15	-4	·	3	·	·
O=C(c1ccco1)C12CN3CN(CN(C3)C1)C2
    -1	3.7	·	·	-14	12	·	-3	·	·
Cn1c(O)c(C=Nc2ccccc2)c(=O)n(C)c1=O
    2	1.1	-2.3	-3.0	0	5	18	-7	i	13
CN1CCN(C(=O)COc2ccc(S(=O)(=O)NCc3ccccc3)cc2Cl)CC1
    -4	2.7	·	·	33	2	·	-4	·	·
O=C(CN1C(=O)CN=C(c2ccccc2)c2ccccc21)NCc1ccco1
    -3	-2.0	·	·	-7	-3	·	-2	·	·
CO[C@@H]1C=CC23c4cc5c(cc4CO[C@]2(O)CN(C)[C@H]3C1)OCO5 (some centres not stated)
    -1	·	-7.0	0.8	·	·	14	2	i	12
C[C@]12CCC(=O)C(O)=C1CC[C@@H]1[C@@H]2CC[C@]2(C)C(=O)CC[C@@H]12
    -11	0.3	·	2.8	3	-2	·	·	i	·
CCC12C=CCN3CCC4(c5cc(Br)c(OC)cc5N(C)C4C(O)(C(=O)OC)C1OC(C)=O)C32 (configuration not stated)
    ·	-2.2	·	·	9	2	·	85*	·	·
NC(Cc1ccccc1)c1nc2ccccc2[nH]1 (configuration not stated)
    -1	-3.3	5.3	1.0	-12	1	7	-3	i	4
O=C(CCc1nnc2ccc(NCc3ccc(F)cc3)nn12)N1CCC2(CC1)OCCO2
    -1	4.8	3.2	3.5	2	-6	4	-3	i	3
CCCCn1c(O)c(C(C)=NCCCN(CC)CC)c(=O)[nH]c1=O
    4	3.7	·	·	58*	-11	·	59	·	·
CCCCN1C(=O)/C(=C/c2ccc(N3CCCCCC3)cc2)C(=O)NC1=S
    -2	-3.0	·	·	-9	5	·	9	·	·
O=C(O)c1cccc2c1NC(c1cccc([N+](=O)[O-])c1)C1CC(Sc3ccccc3[N+](=O)[O-])C(Cl)C21 (configuration not stated)
    ·	-3.1	-11	27*	-5	52	-24	·	i	-14
COC(=O)CC1(CC(=O)OC)C(=O)N(c2ccccc2)C(=O)N(c2ccccc2)C1=O
    -5	1.3	3.2	?	-10	-2	16	-3	i	19
CCOc1cc(C=C2C(=O)NC(=O)NC2=O)cc([N+](=O)[O-])c1O
    2	5.8	-2.0	-3.3	-3	7	-2	9	·	6
FC(F)(F)c1ccc(CNCCc2ccc3c(c2)OCO3)cc1
    -9	3.5	6.8	-40	55*	-11	5	-3	i	-10
CCCCCn1c(=O)c(C(=O)Nc2ccccc2S(N)(=O)=O)c(O)c2ccccc21
    19	-0.5	-1.3	-1.4	69*	17	23	·	i	19
Cc1ccc(-c2cc(C(F)F)n3ncc(C(=O)N4CCC5(CC4)OCCO5)c3n2)cc1
    -4	-0.1	0.1	4.0	-23	5	-3	-3	i	5
COc1ccccc1CCNC1CCC(C)CC1 (configuration not stated)
    2	2.3	·	·	-5	-9	·	-7	·	·
CC1(C)N(O)C2CCCCC2N1O (configuration not stated)
    -7	?	·	·	4	2	·	-18	·	·
Cc1cc2oc(=O)cc(-c3cc4ccccc4o3)c2cc1OC(=O)N(C)C
    10	-3.5	3.4	-2.9	13	-2	2	-5	i	5
O=P(NS(=O)(=O)c1ccc(Cl)cc1)(Oc1ccccc1)Oc1ccccc1
    -1	?	·	·	-18	-2	·	6	·	·
Cc1ccc(CN2CCCC(C(=O)c3cccc(C(F)(F)F)c3)C2)o1 (configuration not stated)
    -3	?	0.6	-0.8	19	?	-15	2	i	-8
c1ccc(CCNCc2ccccc2)cc1
    -3	2.1	·	·	26	-10	·	0	·	·
CCCCn1c(O)c(/C=C2/C=CC=N2)c(=O)[nH]c1=O
    3	3.2	19	6.2	-4	3	13	10	i	15
CCOC(=O)c1c(C=O)c2ccccc2n1Cc1ccccc1
    -3	-3.8	-5.0	-1.0	4	11	-11	·	i	-51
[O-][n+]1onc2c1CCC1N(O)CCC21O (configuration not stated)
    -3	3.9	·	·	2	19	·	3	·	·
O=c1[nH]c(Cl)ccc1CN1CCOCC1
    -7	-2.2	-2.2	0.6	-2	-11	5	·	i	8
CCN(CC)CCOC(=O)c1ccc(N=Cc2c(O)[nH]c(=O)[nH]c2=O)cc1
    -8	0.8	·	·	-13	-4	·	-9	·	·
C=C[C@@H]1C[C@@]1(C)[C@@H](NP(=O)(c1ccccc1)c1ccccc1)c1ccccc1
    ·	5.6	-2.2	0.4	10	4	10	-1	i	3
Cc1ccccc1N1C(=O)NC(=O)/C(=C\c2cnn(-c3ccccc3)c2)C1=O
    -21	-1.7	3.0	-2.3	-14	10	16	·	i	17
CCCOc1ccccc1C1SCC(=O)Nc2c1c(=O)[nH]n2C(C)CCC (configuration not stated)
    0	1.5	·	·	2	8	·	28	·	·
CCCN(CCC)[C@@H]1CCc2cccc(O)c2C1
    -4	?	·	2.3	0	-11	·	33	i	·
O=C(c1ccc(F)cc1)C(Cc1ccccc1)N1CCCCC1 (configuration not stated)
    -1	1.3	0.4	0.7	-3	-9	23	-1	i	12
COC(=O)C1=C(c2ccccc2)C[C@@H]2CC[C@H]1N2C(=O)NCc1cccc2ccccc12
    -1	5.5	-4.4	-0.8	6	20	-15	·	i	-27
Cc1ccc(-n2c(/C=C/c3ccccn3)nc3ccccc3c2=O)cc1
    ·	-3.1	-0.1	-0.2	10	0	-2	·	i	1
O=C(CNC(=O)OCc1ccccc1)Nc1ccc(Br)cc1C(=O)c1ccccc1Cl
    -10	3.5	-1.3	-6.0	35	1	4	-15	i	1
COc1cc(C[C@@H](C)N)c(OC)cc1I
    1	-1.5	-2.5	-1.2	25	-8	-1	7	i	-2
COc1ccc2[nH]cc(CCN=C(N)N)c2c1
    -5	2.2	-1.3	0.7	-13	-9	5	11	i	11
C/C(=N/OC(=O)N(C)C)c1ncc(C(F)(F)F)cc1N1CCOCC1
    -6	-0.8	·	·	9	2	·	-5	·	·

Other entries:
Values in the order: Beta cell apopt	RanGTP-Impb inh	Ecoli rRNA inh RFP	AF4-AF9 inh	T cruzi repl	Calb FLC	Ecoli rRNA inh	ALR inh	FGF22 binding	Ecoli rRNA inh OD600
Cc1cc(C(=O)CS(=O)c2ccc(F)cc2)cc(C)c1OC(=O)N(C)C (configuration not stated)
    -18	?	-1.4	-0.5	-6	-5	-4	13	i	-9
C=CCn1c(O)c(C(C)=NCCCO)c(=O)[nH]c1=O
    -1	2.6	·	·	-16	-21	·	-4	·	·
Cc1ccc(C(c2nnnn2Cc2ccccc2)N2CC=C(c3ccc(F)cc3)CC2)cc1 (configuration not stated)
    21	0.0	·	·	65*	-15	·	2	·	·
Fc1ccc(C(OCCN2CCCC2)c2ccc(F)cc2)cc1
    ·	1.0	-0.7	2.2	22	26	6	-5	i	19
COC(=O)C1=C(c2cccc(OC)c2OC)C[C@@H]2CC[C@H]1N2C(=O)N1CCCCC1
    1	0.7	-6.9	-1.5	-14	-15	-6	-7	i	-8
CC(=O)OC1N=C(c2ccccc2)c2cc(Br)ccc2N(C)C1=O (configuration not stated)
    -7	2.4	·	·	-4	20	·	·	·	·
O=C(CNC(=O)c1ccccc1)Nc1ccc(Br)cc1C(=O)c1ccccc1
    0	1.4	·	·	6	5	·	-5	·	·
O=c1c(/C=N/N2CCOCC2)c(O)n(-c2ccccc2)c(=S)n1-c1ccccc1
    -6	3.6	0.2	-5.0	-8	3	16	4	·	15
NP(=O)(OCC(F)(F)F)Oc1ccc(Cl)cc1 (configuration not stated)
    4	2.0	11	0.6	-9	-25	16	1	i	14
CCOC(=O)C1(c2ccccc2)CCN(CCC(C#N)(c2ccccc2)c2ccccc2)CC1
    ·	3.3	1.9	-1.2	40	11	-7	-4	i	9
C=CP(=O)(O)c1ccccc1
    -6	-4.8	·	·	-7	11	·	-27	·	·
CCN1CCN(c2ncnc3ccc(Br)cc23)CC1
    -8	6.5	·	·	-2	-1	·	5	·	·
O=c1c(C=NCc2cccs2)c(O)n(C2CCCCC2)c(=O)n1C1CCCCC1
    1	-2.1	·	·	43	-4	·	-2	·	·
O=C1NC(=O)N(c2ccc3c(c2)OCO3)C(=O)/C1=C/c1ccc(N2CCCC2)o1
    -5	-22	2.7	2.3	-19	-4	14	30	i	2
Cc1nn(Cc2ccccc2)c(Cl)c1C(=O)O
    1	-2.8	0.7	-1.4	-12	-3	9	-4	i	7
N#CC(C#N)=C(N)c1cccnc1
    ·	?	-1.1	0.4	-8	-2	21	-1	i	10

Source: PubChem
